# NPYLR7 ag: agonists of mosquito NPYLR7 receptor, primary screen, cell-based, Aedes aegypti, calcium fluorescence, mosquito biting behavior. Aedes aegypti neuropeptide Y-like receptor 7 (NPYLR7). HEK293T NPYLR7/Galpha15, GCaMP6s calcium fluorescence. activation, % at 10 µM. 270,000 compounds, 0.15% hits; in the data active = activation above about 40%;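 note: 0% = vehicle and 100% = reference agonist at the receptor; some compounds past the cut are filed as inactive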
# NPYLR7 ag max-min: also measured in NPYLR7 ag; calls as there; activation, %; measured here: Max-Min RFU normalised activation; some inactives read as strong as hits;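 span of the calcium signal over five minutes; 0% = vehicle and 100% = native peptide agonist; compound fluorescence can raise it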
# An asterisk follows results filed as active; & = joins results of further samples. Some of the compounds tested (hit frequency here may not be typical).
1	COc1ccc(-c2csc(-n3[nH]c(C)c(N=Nc4cc(Cl)ccc4Cl)c3=O)n2)cc1
- NPYLR7 ag: -5.3
- NPYLR7 ag max-min: -7.2

2	CC(=O)NCCn1c(C)csc1=Nc1cccc2ccccc12
- NPYLR7 ag: -25.9
- NPYLR7 ag max-min: -22.7

3	CN1C[C@H](C(=O)N[C@]2(C)O[C@@]3(O)[C@@H]4CCCN4C(=O)[C@H](Cc4ccccc4)N3C2=O)CC2c3cccc4[nH]cc(c34)C[C@H]21 (stereo not given in full)
- NPYLR7 ag: 4.1
- NPYLR7 ag max-min: 5.2

4	COc1ccccc1-c1cc(C(=O)NC2CCCCC2)n2nc(C(C)(C)C)cc2n1
- NPYLR7 ag: -8.3&1.8
- NPYLR7 ag max-min: -4.2&19.2

5	Cc1ccc2cc(/C=N\NC(=O)CN3CCCCC3)c(Cl)nc2c1
- NPYLR7 ag: 2.0
- NPYLR7 ag max-min: 2.6

6	O=C(c1ccccc1F)N1CCN(C(C(=O)N2CCc3ccccc3C2)C2CCCC2)CC1 (stereo not given)
- NPYLR7 ag: -2.7
- NPYLR7 ag max-min: 0.2

7	O=[N+]([O-])c1ccccc1C=CC=NN1CCN(Cc2cccc3ccccc23)CC1
- NPYLR7 ag: -6.1
- NPYLR7 ag max-min: -8.5

8	COc1ccc(F)c(CN2CCCC(O)(CN(C)Cc3ccco3)C2=O)c1 (stereo not given)
- NPYLR7 ag: -1.0
- NPYLR7 ag max-min: -5.7

9	CN(C)c1nc(-c2ccccc2)nc2c1CCN(C(=O)c1[nH]ncc1Cl)C2
- NPYLR7 ag: 6.2
- NPYLR7 ag max-min: 6.5

10	Cn1c(=O)c2c(ncn2CC(=O)NC2CCCCCCC2)n(C)c1=O
- NPYLR7 ag: 1.6
- NPYLR7 ag max-min: 3.6

11	COc1ccc(S(=O)(=O)Nc2ccc(Nc3ccc(-n4ccc(C)n4)nn3)cc2)c(C)c1C
- NPYLR7 ag: 0.8
- NPYLR7 ag max-min: -7.8

12	CC1(C)C2CC[C@@]34C=C[C@@](C)(CC[C@H]3[C@]2(C)CC(=O)[C@@H]1O)C4 (stereo not given in full)
- NPYLR7 ag: -8.8
- NPYLR7 ag max-min: -17.1

13	Cc1nc2ccc(C(=O)N3CCC(O)(Cc4ccccc4)CC3)cn2c1N(C)C(=O)CCc1ccccc1
- NPYLR7 ag: 20.6
- NPYLR7 ag max-min: 13.8

14	CC(C)(C)n1nc2c(c1NC(=O)c1ccc(F)cc1)CSC2
- NPYLR7 ag: -2.9
- NPYLR7 ag max-min: -6.2

15	CC(Sc1ncnc2ccccc12)C(=O)NC(N)=O (stereo not given)
- NPYLR7 ag: 13.1
- NPYLR7 ag max-min: 19.3

16	COc1ccc(NC2CCCN(C(=O)c3cnc(C(C)C)nc3C)C2)cc1 (stereo not given)
- NPYLR7 ag: 5.8
- NPYLR7 ag max-min: 4.3

17	N#CC1C(=N)SC(=N)C(C#N)C1c1cccnc1 (stereo not given)
- NPYLR7 ag: 17.2
- NPYLR7 ag max-min: 16.5

18	CC1=NN(c2ccccc2)C(=O)/C1=C\c1ccc(-c2ccc([N+](=O)[O-])cc2)o1
- NPYLR7 ag: -4.8
- NPYLR7 ag max-min: -9.9

19	CCC(O)CN1CCN(C(=O)c2ccc(N3CCCC3)nn2)CC1 (stereo not given)
- NPYLR7 ag: 5.6
- NPYLR7 ag max-min: 4.2

20	Cc1nc(-c2ccccn2)sc1C(=O)OC(C)C(=O)Nc1ncc(C(F)(F)F)cc1Cl (stereo not given)
- NPYLR7 ag: 31.8
- NPYLR7 ag max-min: 33.6

# Part of the list above in a different format:
6	O=C(c1ccccc1F)N1CCN(C(C(=O)N2CCc3ccccc3C2)C2CCCC2)CC1 (stereo not given)
7	O=[N+]([O-])c1ccccc1C=CC=NN1CCN(Cc2cccc3ccccc23)CC1
8	COc1ccc(F)c(CN2CCCC(O)(CN(C)Cc3ccco3)C2=O)c1 (stereo not given)
9	CN(C)c1nc(-c2ccccc2)nc2c1CCN(C(=O)c1[nH]ncc1Cl)C2
10	Cn1c(=O)c2c(ncn2CC(=O)NC2CCCCCCC2)n(C)c1=O
11	COc1ccc(S(=O)(=O)Nc2ccc(Nc3ccc(-n4ccc(C)n4)nn3)cc2)c(C)c1C
12	CC1(C)C2CC[C@@]34C=C[C@@](C)(CC[C@H]3[C@]2(C)CC(=O)[C@@H]1O)C4 (stereo not given in full)
13	Cc1nc2ccc(C(=O)N3CCC(O)(Cc4ccccc4)CC3)cn2c1N(C)C(=O)CCc1ccccc1

assay / compound,6,7,8,9,10,11,12,13
NPYLR7 ag,-2.7,-6.1,-1.0,6.2,1.6,0.8,-8.8,20.6
NPYLR7 ag max-min,0.2,-8.5,-5.7,6.5,3.6,-7.8,-17.1,13.8

14	CC(C)(C)n1nc2c(c1NC(=O)c1ccc(F)cc1)CSC2
15	CC(Sc1ncnc2ccccc12)C(=O)NC(N)=O (stereo not given)
16	COc1ccc(NC2CCCN(C(=O)c3cnc(C(C)C)nc3C)C2)cc1 (stereo not given)
17	N#CC1C(=N)SC(=N)C(C#N)C1c1cccnc1 (stereo not given)

assay / compound,14,15,16,17
NPYLR7 ag,-2.9,13.1,5.8,17.2
NPYLR7 ag max-min,-6.2,19.3,4.3,16.5

# Other records follow:
21	C=C(C)Cn1c(N2CCN(CC(N)=O)CC2)nc2c1c(=O)[nH]c(=O)n2C
- NPYLR7 ag: 7.7
- NPYLR7 ag max-min: 6.9

22	COc1ccc(Oc2cnc(N)nc2-c2ccc(OCc3ccccc3F)cc2O)cc1
- NPYLR7 ag: -1.2
- NPYLR7 ag max-min: -2.1

23	CCC(=O)N1CCSC12C(=O)N(CC)c1ccc(Cl)cc12 (stereo not given)
- NPYLR7 ag: 7.1
- NPYLR7 ag max-min: 8.5

24	CCOC(=O)C1=C(C)N=c2s/c(=C\c3ccc(O)c(OC)c3)c(=O)n2C1c1ccc(Cl)cc1 (stereo not given)
- NPYLR7 ag: 13.4
- NPYLR7 ag max-min: 19.5

25	CCc1c(C)sc2nc(SC)n(CCOC)c(=O)c12
- NPYLR7 ag: 1.2
- NPYLR7 ag max-min: 2.5

26	COc1cc(OC)cc(C(=O)N2CCCC(OCc3ccc(Br)cc3)C2)c1 (stereo not given)
- NPYLR7 ag: -6.2
- NPYLR7 ag max-min: -6.2

27	COc1ccccc1NC(=O)C[n+]1ccc2ccccc2c1
- NPYLR7 ag: 1.1
- NPYLR7 ag max-min: 8.9

28	Cc1cc(C(=O)NCc2ccc(-c3ncc(-c4ccc(F)cc4)[nH]3)cc2)c(C)o1
- NPYLR7 ag: 1.6
- NPYLR7 ag max-min: -5.3

29	Cc1cnc(CSc2ccc(S(=O)(=O)C(F)(F)F)cc2)cn1
- NPYLR7 ag: 1.4
- NPYLR7 ag max-min: 2.0

30	Clc1cc(CSc2nnc(-c3c[nH]c4ccccc34)n2C2CC2)cc2c1OCCO2
- NPYLR7 ag: -0.6
- NPYLR7 ag max-min: -0.9

31	Fc1cccc2sc(N3CCc4ccccc4C3)nc12
- NPYLR7 ag: -0.6
- NPYLR7 ag max-min: -0.5

32	CSc1ncccc1C(=O)N1CCCC(CNC(=O)c2ccco2)C1 (stereo not given)
- NPYLR7 ag: 9.6
- NPYLR7 ag max-min: 1.8

33	COc1ccc(C(=O)NCc2nnnn2-c2ccc(F)c(F)c2)cc1
- NPYLR7 ag: -0.5
- NPYLR7 ag max-min: -3.2

34	COc1ccc(C(=O)Nc2c(C)nc3scc(C)n3c2=O)cc1OC
- NPYLR7 ag: 1.1
- NPYLR7 ag max-min: -4.5

35	CCc1nc(N2CCN(CC)CC2)c2ccc(Cl)cc2n1
- NPYLR7 ag: -2.8
- NPYLR7 ag max-min: 6.4

36	Cc1cc(-c2cccc(F)c2)nnc1N1CCOC(C(N)=O)C1 (stereo not given)
- NPYLR7 ag: 2.7
- NPYLR7 ag max-min: -0.2

37	CCOC(=O)c1c(NC(=O)CSC2=N/C(=C/c3cnn(C)c3)C(=O)N2CC(C)C)sc2c1CCC(CC)C2 (stereo not given)
- NPYLR7 ag: -0.3
- NPYLR7 ag max-min: 0.5

38	O=C(NCc1ccc2c(c1)OCCO2)Nc1ccc(F)cc1
- NPYLR7 ag: -0.8
- NPYLR7 ag max-min: -3.4

39	CC(NC(=O)CN1CN(c2ccccc2)C2(CCN(C(=O)Nc3ccccc3Br)CC2)C1=O)c1ccccc1 (stereo not given)
- NPYLR7 ag: 16.1
- NPYLR7 ag max-min: 12.7

# Assay outcomes deposited in PubChem by Fisher Drug Discovery Resource Center.
